KCNQ2 block: KCNQ2 potassium channel inhibitors, primary screen, cell-based, CHO-K1, FluxOR thallium flux, B-score (AID 2156). 20 min; active compounds read low; only compounds with negative scores are shown here; some inactives read as strong as hits. 1.1% of 310,000 active. B-score at 10 µM. O88943;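 active means fluorescence ratio B-score at most minus 3 library SDs, with starting brightness B-score within 2 library SDs, cut at about -5.5 in these data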
Target sequence (O88943 whole entry, looked up): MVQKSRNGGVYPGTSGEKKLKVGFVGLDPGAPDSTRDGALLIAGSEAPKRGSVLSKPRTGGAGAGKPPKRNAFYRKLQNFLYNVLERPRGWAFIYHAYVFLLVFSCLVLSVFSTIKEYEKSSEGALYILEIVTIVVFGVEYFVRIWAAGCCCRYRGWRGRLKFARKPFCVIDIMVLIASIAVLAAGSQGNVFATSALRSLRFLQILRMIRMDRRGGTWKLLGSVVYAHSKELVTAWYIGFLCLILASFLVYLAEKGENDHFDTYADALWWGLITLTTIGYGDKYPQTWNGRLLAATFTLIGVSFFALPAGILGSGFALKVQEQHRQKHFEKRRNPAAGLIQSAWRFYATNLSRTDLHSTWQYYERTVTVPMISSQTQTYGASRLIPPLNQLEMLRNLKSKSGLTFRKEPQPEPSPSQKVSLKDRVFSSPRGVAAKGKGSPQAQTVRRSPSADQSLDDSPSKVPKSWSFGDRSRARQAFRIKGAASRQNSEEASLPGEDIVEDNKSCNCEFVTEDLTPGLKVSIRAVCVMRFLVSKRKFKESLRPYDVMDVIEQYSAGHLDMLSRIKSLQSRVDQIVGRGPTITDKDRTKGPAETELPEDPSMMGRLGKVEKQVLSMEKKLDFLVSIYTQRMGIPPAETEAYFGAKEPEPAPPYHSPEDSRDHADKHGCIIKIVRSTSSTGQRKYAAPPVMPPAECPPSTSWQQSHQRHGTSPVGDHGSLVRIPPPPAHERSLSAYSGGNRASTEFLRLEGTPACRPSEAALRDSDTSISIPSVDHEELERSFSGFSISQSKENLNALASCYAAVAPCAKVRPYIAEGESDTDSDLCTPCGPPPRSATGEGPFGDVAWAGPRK
KCNQ2 block baseline: recorded beside KCNQ2 block, whose call it bears; B-score; measured here: initial fluorescence intensity artifact check;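 brightness before thallium and not channel activity; 0 = typical well and far values either way flag optical interference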
The depositor's hits bear a star; i = inactive.

SMILES	KCNQ2 block	KCNQ2 block baseline
CCOc1ccccc1NC(=O)C1(S(=O)(=O)c2ccc(Cl)cc2)CC1	i	0.6
Cc1ccc(/C(=N\O)c2oc3c(C)c4oc(=O)cc(C)c4cc3c2C)cc1	i	-0.45
Cc1ccc(CSc2ccc(-c3ccco3)nn2)cc1	i	-0.91
Cc1cc(NC(=O)/C=C/C(=O)N(c2ccccc2C)C(C(=O)NC2CCCC2)c2ccc(F)cc2)no1 (configuration not stated)	i	-0.4
O=C(NCCNS(=O)(=O)c1ccc(C(F)(F)F)cc1)N1CCOCC1	i	-1.2
COc1ccc(C(=O)NCC2CCCN2S(=O)(=O)c2cccs2)cc1OC (configuration not stated)	i	0.89
CC(C)(C)NC(NC(=O)Cc1ccccc1)C(Cl)(Cl)Cl (configuration not stated)	i	1
COc1ccc(-c2ccc(C#N)c(SCC(=O)Nc3sc4c(c3C#N)CCC4)n2)cc1	i	-0.8
S=c1[nH]nc(CN2CCCCC2)n1Cc1ccccc1	i	3.8
C=CCNS(=O)(=O)c1ccc2nsnc2c1	i	-0.34
CCC(C)NC(=O)C(Cc1ccccc1)NS(=O)(=O)c1ccc2c(c1)oc(=O)n2C (configuration not stated)	i	-0.2
COc1ccc(OC)c(C2N(c3ccc(Cl)cc3)C(=O)C3CCCN32)c1 (configuration not stated)	i	-0.84
CCN(c1ccc(OC)cc1)S(=O)(=O)c1ccc(-c2cc(C)no2)s1	i	0.99
O=C(Nc1ccc2nc3n(c(=O)c2c1)CCCC3)c1ccc(Cl)nc1	i	1.2
O=C(Nc1ccc(Cl)cc1)Nc1ccc2c(c1)OCO2	i	-0.94
CCC1SC2=NC(C)=C(C(=O)OCCOC)C(/C=C/c3ccccc3OC)N2C1=O (configuration not stated)	i	0.06
Nn1c(SCC(=O)Nc2cc(C(F)(F)F)ccc2Cl)nncc1=O	i	0.7
Cc1ccc(-c2nnn(CC(=O)NC3CCN(Cc4ccccc4)CC3)n2)cc1	i	2.6
CCCC/C(C)=N/NC(=O)c1cn(-c2ccccc2)nc1-c1ccccc1	i	-0.55
CCN1C(=O)[C@H]2[C@@H](c3ccc(-c4ccc(OC)cc4)c(OC)c3)N3CCCC[C@@]3(C(=O)OC)[C@H]2C1=O	i	0.27

Overlap with the part before: 5 compounds, then new ones.
SMILES	KCNQ2 block	KCNQ2 block baseline
CCC1SC2=NC(C)=C(C(=O)OCCOC)C(/C=C/c3ccccc3OC)N2C1=O (configuration not stated)	i	0.06
Nn1c(SCC(=O)Nc2cc(C(F)(F)F)ccc2Cl)nncc1=O	i	0.7
Cc1ccc(-c2nnn(CC(=O)NC3CCN(Cc4ccccc4)CC3)n2)cc1	i	2.6
CCCC/C(C)=N/NC(=O)c1cn(-c2ccccc2)nc1-c1ccccc1	i	-0.55
CCN1C(=O)[C@H]2[C@@H](c3ccc(-c4ccc(OC)cc4)c(OC)c3)N3CCCC[C@@]3(C(=O)OC)[C@H]2C1=O	i	0.27
COc1ccc(-c2cc(C(=O)NCCCN3CCOCC3)c3cc(C(C)C)ccc3n2)cc1	i	0.44
CCOP(=O)(OCC)/C(=C/N1CCCCC1)NC(=O)c1ccccc1	i	0.24
O=C(Nc1nc2ccccc2s1)c1ccc(F)cc1	i	1.8
CCCCOC(=O)Cn1c(=O)oc2ccc(C)cc21	i	-0.11
COc1ccc(N=Cc2[nH]c3ccccc3c2O)cc1	i	-1.2
Cc1cc(C)nc(NNC2=CC(=[N+]3CCCCC3)CC(C)(C)C2)n1	i	0.89
CCn1c(CSCc2ccc(C)cc2)nnc1SCC(=O)NCc1ccccc1	i	-1.3
CC1CCN(C(C(=O)Nc2ccc3c(c2)OCO3)c2ccccc2)CC1 (configuration not stated)	-7*	0.32*
Cc1oc2ccc(NS(=O)(=O)c3ccc(C(C)(C)C)cc3)cc2c1C(=O)Nc1ccccc1	-6*	1.4*
CCOC(=O)C(CCCCOc1cccc(CC)c1)C(=O)OCC	-5.6*	0.99*
Cc1cc(C(=O)c2ccccc2)c(NC(=O)CCl)s1	i	0.01
CN(C(=O)c1ccc2c(Cl)c3c(nc2c1)CCC3)c1ccccc1	i	-1.8
COc1ccc(C(=O)C2CCCN(Cc3cccn3-c3ccccn3)C2)c(OC)c1 (configuration not stated)	i	0.5
O=C(O)c1cc(-c2ccco2)nn1-c1cccc(Cl)c1	i	2.6
O=S(c1ccsc1)c1ccsc1	i	1.4
CCN(CC)C(=O)COC(=O)C1=NN(c2cc(C)ccc2C)C(=O)CC1	i	-2.5
COc1ccccc1/C=N\Nc1ccccc1[N+](=O)[O-]	i	-1.6
CCOC(=O)c1ccc2nc(NC(=O)C(C)C)sc2c1	i	-0.52
O=C(C1CCC(CNc2c(N3CCCCC3)c(=O)c2=O)CC1)N1CCN(C2CCCCC2)CC1 (configuration not stated)	i	0.11
O=C(NCCCN1CCOCC1)C(=O)c1c[nH]c2ccccc12	i	0.15

Compounds listed so far that have a CF3 group, in the order listed:
SMILES	KCNQ2 block	KCNQ2 block baseline
O=C(NCCNS(=O)(=O)c1ccc(C(F)(F)F)cc1)N1CCOCC1	i	-1.2
Nn1c(SCC(=O)Nc2cc(C(F)(F)F)ccc2Cl)nncc1=O	i	0.7

The listing continues:
SMILES	KCNQ2 block	KCNQ2 block baseline
COc1ccc(/C=N/N2CCOCC2)cc1Cn1nc(C)c([N+](=O)[O-])c1C	i	1.1
COc1ccc2c(c1)cc1n2CCN=C1NCCO	i	-0.72
C1CCCCCC2(CCCCC1)OCC(CN1CCOCC1)O2 (configuration not stated)	i	-0.18
c1ccc(C(NCCNC(c2ccccc2)c2ccccc2)c2ccccc2)cc1	-7.2*	-2.3*
COc1ccc(CNC(=O)/C=C/C(=O)O)cc1OC	i	-0.54
CC(C)C1COC(c2cccn2Cc2ccccc2Cl)=N1 (configuration not stated)	i	1.2
CCCNC(=O)c1ccc(N2CCC3(CC2)CC(c2ccccc2)=NO3)c(NC(=O)c2ccc(Br)cc2)c1	i	-0.07
CCN(CC)C(=O)C1=C(C)NC(=O)NC1c1c(F)cccc1Cl (configuration not stated)	i	-0.6
COC(=O)c1ccc(CSc2nc3c(cnn3-c3ccc(C)cc3)c(=O)[nH]2)o1	i	-0.11
COc1ccc(/C=C/C(=O)c2ccoc2)cc1	i	2.7
COc1cc(OC)cc(N(C(=O)c2ccco2)C(C(=O)NC2CCCC2)c2ccc(N3CCOCC3)cc2)c1 (configuration not stated)	i	-0.17
O=C(OCn1ncc(Cl)c(Cl)c1=O)c1ccc(F)cc1	i	0.45
Cn1nccc1C(=O)Oc1ccc(/C=N/NC(=O)c2ccccc2O)cc1	i	3.2
O=C(O)CC(C(=O)O)N1C(=O)/C(=C/C=C/c2ccco2)SC1=S (configuration not stated)	i	-0.9
CC(C)(C)n1nc2c(c1NC(=O)CCCc1ccccc1)CS(=O)C2 (configuration not stated)	i	0.53
CCN(CC(=O)NCc1cccs1)C(=O)CN(C)S(=O)(=O)c1ccc(C)cc1	i	-1
CC12C(=O)N(c3ccccn3)C(=O)C1C1C=CC2C1 (configuration not stated)	i	0.87
CCc1c(O)cc2n(c1=O)-c1ccccc1C2(C)C	i	-0.06
COc1ccc(CCNC(=O)c2cc(S(=O)(=O)N3CCCCC3)c[nH]2)cc1OC	i	-0.41
CC(=O)Nc1ccc(S(=O)(=O)NCC(C)NS(=O)(=O)c2ccc(NC(C)=O)cc2)cc1 (configuration not stated)	i	-0.06
CCOC(=O)N1CCN(C(=O)CSCC(=O)Nc2nc(-c3ccc(C)cc3)cs2)CC1	i	0.4
CCN1CCN(c2cc(C)c3cc(NC(=S)N(C)Cc4ccccc4)ccc3n2)CC1	i	-0.97
CC(=O)NC(Cc1cccc(C)c1)C(=O)NC1CCN(S(=O)(=O)c2ccccc2)CC1 (configuration not stated)	i	0.5
COC(=O)CNC(=O)C1CCN(S(=O)(=O)c2cnc[nH]2)CC1	i	-0.05
COc1ccc(C2=NOC(c3nnc(-c4ccccc4)o3)C2)cc1 (configuration not stated)	i	4.6
COc1ccc(OC)c(CN2CCN(C(=O)c3ccc(F)cc3)CC2)c1	i	2.1
COc1ccc(OC)c(Cc2nnc(CCC(=O)N3CCCCC3c3nccs3)o2)c1 (configuration not stated)	i	2.5
CCCCC1=CC2=C(c3ccco3)C(=O)C(C)(OC(=O)c3ccc(OC)cc3)C(=O)C2=CN1C1CCCCC1 (configuration not stated)	i	-0.57
Cc1ccc(C2(C)NC(=O)N(CC(=O)NCc3cccc(Cl)c3)C2=O)cc1 (configuration not stated)	i	-2
CCn1c(C)c(C)c2cc(C(=O)NCCCN3CCCC3)ccc21	i	-0.19
CNc1c([N+](=O)[O-])cnn1-c1ccccc1F	i	0.06
O=C(O)c1cccc(Nc2ncnc3c2cnn3-c2ccccc2)c1	i	0.46
CC(=O)c1ccc(N2CCN(S(=O)(=O)c3ccc4c(c3)NC(=O)CC(=O)N4)CC2)cc1	i	-0.23
CSc1cccc(CNC(=O)C2CCC(=O)N(Cc3cccc(C(F)(F)F)c3)C2)c1 (configuration not stated)	i	-1.3
COCCNC(=O)C(=O)Nc1cc2c3c(c1)CCC(=O)N3CCC2	i	1.9
COc1ccc(-c2nc(-c3ccccc3)c(-c3cccs3)[nH]2)cc1OC	i	0.87
O=C(C1CCN(S(=O)(=O)c2cccc3nsnc23)CC1)N1CCc2ccccc2C1	i	-1.9
Nc1ncnc2nc(SCCOc3ccc(Cl)cc3)[nH]c12	i	0.51
O=C(N/N=C/c1cccc2cccnc12)c1ccccc1O	i	2.3
CCCCC(C(=O)NC1CCCC1)N(Cc1ccco1)C(=O)Cn1nnc(-c2ccc(F)cc2)n1 (configuration not stated)	-7.2*	1.3*

Reprinted from the part before: five entries; new compounds follow.
SMILES	KCNQ2 block	KCNQ2 block baseline
COc1ccc(-c2nc(-c3ccccc3)c(-c3cccs3)[nH]2)cc1OC	i	0.87
O=C(C1CCN(S(=O)(=O)c2cccc3nsnc23)CC1)N1CCc2ccccc2C1	i	-1.9
Nc1ncnc2nc(SCCOc3ccc(Cl)cc3)[nH]c12	i	0.51
O=C(N/N=C/c1cccc2cccnc12)c1ccccc1O	i	2.3
CCCCC(C(=O)NC1CCCC1)N(Cc1ccco1)C(=O)Cn1nnc(-c2ccc(F)cc2)n1 (configuration not stated)	-7.2*	1.3*
Cc1ccc2cccc(S(=O)(=O)N3CCN(c4cccc(Cl)c4)CC3)c2n1	i	-0.16
CC(C)CCN(CC(=O)NC(C)(C)C)C(=O)C(=O)Nc1ccc2c(c1)OCCO2	i	-0.57
COc1ccc(C)cc1S(=O)(=O)NC1CCCCCC1	i	0.89
Cc1ccc(C)c(S(=O)(=O)N2CCCOC2CNC(=O)C(=O)NCc2cccs2)c1 (configuration not stated)	i	0.3
CC(C)Sc1nnc([C@@H]2CCCN2C(=O)OC(C)(C)C)o1	i	-0.81
Cc1cccc(C)c1N=Cc1c(O)n(-c2nccs2)c(=O)c2ccccc12	i	0.15
CC(C)n1nc(C(=O)Oc2cc(Cl)ccc2Cl)c2ccccc2c1=O	i	-0.61
O=C(CSc1nnc2c(Cl)cc(C(F)(F)F)cn12)N(Cc1ccccc1)Cc1ccccc1	i	0.01
O=C1CN(C(=O)COC(=O)C23CC4CC(CC(O)(C4)C2)C3)c2ccccc2N1	i	-0.94
CC(C#N)On1c(SC(C)C#N)nc2ccccc2c1=O (configuration not stated)	i	3.6
CC(C)(C)c1cc(NC(=O)c2cccc(S(=O)(=O)N3CCOCC3)c2)no1	i	1.7
O=C(Nc1cccc2ncccc12)c1ccco1	i	-1.4
CN(C)C(=O)COn1c(SCC(=O)N(C)C)nc2ccccc2c1=O	i	0.01
Cc1ccc(C(C[N+](=O)[O-])c2c(C)[nH]n(-c3ccccc3)c2=O)cc1 (configuration not stated)	i	-0.1
Cc1cc(NS(=O)(=O)c2ccc(NC(=O)COc3c(C)cc(Br)cc3C)cc2)no1	i	0.11
Cc1nc2ncnn2c(C)c1CCC(=O)O	i	0.55
O=C(c1ccc2ncsc2c1)N1CCN(c2nc3ccccc3s2)CC1	i	0.14
O=C(/C=C/c1cccc([N+](=O)[O-])c1)c1ccc([N+](=O)[O-])o1	i	-1.1
COc1cc(/C=N/N(C)c2ccccc2)cc(Cl)c1O	i	-0.29
Cc1cccc(Cn2c(=O)n(Cc3ccco3)c(=O)c3ccccc32)c1	i	-0.35

Next section (3 carried over from the part before).
SMILES	KCNQ2 block	KCNQ2 block baseline
O=C(/C=C/c1cccc([N+](=O)[O-])c1)c1ccc([N+](=O)[O-])o1	i	-1.1
COc1cc(/C=N/N(C)c2ccccc2)cc(Cl)c1O	i	-0.29
Cc1cccc(Cn2c(=O)n(Cc3ccco3)c(=O)c3ccccc32)c1	i	-0.35
COc1ccccc1S(=O)(=O)Cc1ccc(C(=O)NC2CC2)o1	i	-0.02
CCOc1ccc(CCNC(=O)C(C)N2C(=O)CC(C)(C)Sc3ccccc32)cc1 (configuration not stated)	i	-0.82
CC(C)Oc1ccc(C(CC(=O)O)NC(=O)Cc2ccc(Cl)cc2)cc1 (configuration not stated)	i	0.11
C=CCn1c(CSc2nc3ccccc3s2)n[nH]c1=S	i	2.2
Cc1nc2ccc(Nc3nc4cc(S(=O)(=O)N5CCOCC5)ccc4o3)cc2s1	i	1.3
O=C(CSc1nc2ccccc2c(=O)n1Cc1ccco1)c1ccc(F)cc1	i	0.56
COc1ccc2c(c1)-c1c(ssc1=S)C(C)(C)N2	i	-2.8
Cc1ccc(S(=O)(=O)N(c2nc(NC(C)C)nc(NC(C)C)n2)n2cnnc2)cc1	i	-0.03
COc1ccc(/C=C(/NC(=O)/C=C/c2ccccc2)C(=O)O)cc1	i	2.2
CCOc1ccc2ncc(S(=O)(=O)c3ccccc3)c(N3CCC4(CC3)OCCO4)c2c1	i	0.62
O=C(Nc1ccc(S(=O)(=O)Nc2ncccn2)cc1)c1ccccc1NS(=O)(=O)c1ccc(F)cc1	i	4.6
COC(=O)c1cc(CSc2nc3ccc(C)cc3[nH]2)oc1C	i	-0.1
COc1ccccc1N1CCN(C(=O)c2ccc(Cn3c(=S)[nH]c4cc5c(cc4c3=O)OCO5)cc2)CC1	i	0.08
N=C1CCC(=N)c2c1c(O)c1ccccc1c2O	i	14

High-throughput results deposited in PubChem BioAssay by Johns Hopkins Ion Channel Center.

Not all compounds are listed (hit frequency here may not be typical).
